# Source: PubChem BioAssay (National Center for Advancing Translational Sciences (NCATS))
# RE007 growth inh: qHTS Assay for Inhibitors of the HIV-1 protein Vpr; S. pombe RE007 Vpr strain, BacTiter-Glo ATP luminescence, 24 h; control for the full effect not named in the record; Potency, µM (highest dose often 92.2 µM), inactives show at the highest dose activity change, negative = less growth; 360,000 tested, 0.21% active; AID 651644, 2012; active = well fitted falling curve with a large enough effect; inconclusive = small, poorly fitted or top-dose-only effect; inactive = no such curve, though single readings can be large or run the other way;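 note: % is set by controls: 0 for no effect and ±100 for the full control effect; nearly all actives have a fitted effect of over 50% in size; the assay follows cell death caused by Vpr and the record does not say whether a fall means rescue or toxicity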
#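 Fission yeast strain RE007, carrying one chromosomally integrated HIV-1 vpr copy, was seeded at OD 0.01 in PMG+AL medium with 23 nL pinned compound. After 24 h at 30 °C and 99% humidity, viability was read by BacTiter-Glo luminescence.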
# Lassa entry inh: qHTS for Inhibitors of binding or entry into cells for Lassa Virus; Lassa virus pseudotype entry inhibition, cell reporter; control for the full effect not named in the record; Potency, µM (highest dose often 37.9 µM), inactives show top-dose activity change, negative = inhibition, usual class: inhibitors; 300,000 tested, 1.2% active; active means well fitted inhibition curve with a large enough effect; inconclusive means small, poorly fitted or top-dose-only effect, or effect the other way; inactive means flat fitted curve, though single readings scatter; tested in HEK293 cells; note: % is set by controls: 0 for no effect and ±100 for the full control effect; nearly all actives have a fitted effect of over 50% in size; luciferase read-out
# SARS PLpro yeast: qHTS of Yeast-based Assay for SARS-CoV PLP. AID 485353, 2010. S. cerevisiae expressing SARS-CoV PLpro, growth rescue; control for the full effect not named in the record. Potency, µM (titrated, usually from 32.9 µM), inactives show at the top dose activity, positive = growth rescue. 330,000 tested, 0.19% active; active means well fitted rising curve with a large enough effect; inconclusive means small, poorly fitted or top-dose-only effect; inactive means no such curve, though single readings can be large or run the other way; note: 0% is about no effect; nearly all actives have a fitted effect of over 55% in size; growth read by luminescence after 48 h
# MARV entry inh: qHTS for inhibitors of binding or entry into cells for Marburg Virus; 300,000 tested, 1.8% active; AID 540276, 2011; Potency, µM (series often up to 37.8 µM), without a hit: at the highest dose activity change, negative = inhibition, usual class: inhibitors; Marburg virus pseudotyped entry inhibition, cell reporter; control for the full effect not named in the record; about a third of the inactives were read at about 46 µM; active = well fitted inhibition curve with a large enough effect; inconclusive = small, poorly fitted or top-dose-only effect, or effect the other way; inactive = flat fitted curve, though single readings scatter; tested in HEK293 cells; about a fifth of its hits are not listed in these tables; note: % is set by controls: 0 for no effect and ±100 for the full control effect; luciferase read-out
# NS1 inh: qHTS Assay for Inhibitors of Influenza NS1 Protein Function. S. cerevisiae slowed by influenza A NS1, growth recovery by OD600. Potency, µM (highest dose often 46.1 µM), inactives show at the highest dose activity, positive = more growth. 270,000 tested, 0.4% active. AID 2326, 2010; active means well fitted rising curve with a large enough effect; inconclusive means small, poorly fitted or top-dose-only effect; inactive means no such curve, though single readings can be large or run the other way; note: nearly all actives have a fitted effect of over 50% in size
#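 OD600 was taken as the measure of yeast growth restored by compound in an NS1-expressing S. cerevisiae strain. Cells had been washed out of glucose medium and diluted 1:100 into galactose -URA medium, pH 6.0.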
# Cruzain noTriton: qHTS Assay for Promiscuous and Specific Inhibitors of Cruzain (without detergent); 200,000 tested, 2.3% active; Cruzipain (Trypanosoma cruzi), P25779; Potency, µM, without a hit: max response, negative = inhibition, most hits filed as inhibitors; purified cruzain, Z-FR-AMC fluorescence, no detergent; AID 1476, 2009;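 note: plate controls were enzyme without inhibitor for no effect and buffer without enzyme for full effect; nearly all actives have a fitted effect of over 40% in size; top concentration of the series not given in the record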
# Target sequence (P25779 123-467 limits assumed): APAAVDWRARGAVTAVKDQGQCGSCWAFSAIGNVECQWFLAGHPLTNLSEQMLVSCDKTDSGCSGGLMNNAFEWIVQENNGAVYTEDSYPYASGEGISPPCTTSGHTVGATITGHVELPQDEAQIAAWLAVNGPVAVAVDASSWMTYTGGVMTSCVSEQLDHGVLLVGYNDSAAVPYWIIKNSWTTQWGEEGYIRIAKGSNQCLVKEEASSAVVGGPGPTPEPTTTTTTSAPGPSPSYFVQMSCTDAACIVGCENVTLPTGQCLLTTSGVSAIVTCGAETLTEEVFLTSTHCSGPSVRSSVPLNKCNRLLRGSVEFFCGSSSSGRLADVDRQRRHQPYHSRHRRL
#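 Purified cruzain at 1.5 nM, pre-incubated 15 min with compound at room temperature in 100 mM sodium acetate pH 5.5, 5 mM DTT, 0.00005% Triton X-100. Reaction started with 2 uM Z-FR-AMC; AMC fluorescence increase over 60 s gives rate.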
# StopGo reporter: High Throughput Screening for Foot and Mouth Disease Virus Antivirals. human cells with a luciferase reporter of 2A StopGo recoding; control for the full effect not named in the record. Potency, µM (highest dose often 57.9 µM), inactives show at the top dose signal change, negative = less light. 410,000 tested, 1.2% active; active = well fitted falling curve with a large enough effect; inconclusive = small, poorly fitted or top-dose-only effect; inactive = no such curve, though single readings can be large or run the other way; tested in HEK293T cells; note: % is set by controls: 0 for no effect and ±100 for the full control effect; nearly all actives have a fitted effect of over 45% in size; luciferase light after 4 h
# Cruzain Triton: qHTS Assay for Promiscuous and Specific Inhibitors of Cruzain (with detergent) | purified cruzain, Z-FR-AMC fluorescence, 0.01% Triton | Potency, µM, for the others: max response, negative = inhibition, most hits filed as inhibitors | 200,000 tested, 0.43% active;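 note: plate controls were neutral wells for no effect and buffer without enzyme for full effect; nearly all actives have a fitted effect of over 40% in size; top concentration of the series not given in the record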
#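 Steps: dispense cruzain (1.5 nM final) in acetate buffer pH 5.5 with DTT and 0.01% Triton X-100; pin-transfer compounds; incubate 15 min RT; add Z-FR-AMC (2 uM final); read fluorescence every 30 s, using the 60 s intensity change.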
# Starred values were filed as active, the others as inactive; u = inconclusive; x = no result given; & = joins results of further samples; [ ] = dose if it differs, or a comment. Unless noted, calls come from the whole dose curve; as a rule, active = well fitted curve in the direction sought with a large enough effect; inconclusive = small, poorly fitted or top-dose-only effect, or another doubt; inactive = no such curve, though single readings can be large; an effect the other way counts as inactive or inconclusive. Potency is the fitted concentration of half-maximal effect. An unsorted share of the library; any-hit rate near 4.5%.
SMILES,RE007 growth inh,Lassa entry inh,SARS PLpro yeast,MARV entry inh,NS1 inh,Cruzain noTriton,StopGo reporter,Cruzain Triton
CC(=O)Oc1ccc(-c2cccc(C(=O)OCC(=O)Nc3ccccc3Oc3ccccc3)c2)cc1,2%,u,u,u,4%,u,u,-2.5%
CNC(=S)N1N=C(c2ccc(C)cc2)CC1c1ccc(OC)c(OC)c1 (stereo not drawn),9%,u,u,u,3%,12%,-2%,-13%
O=C(O)C(Cc1ccccc1)N=Cc1c(O)c2ccccc2oc1=O (stereo not drawn),14%,9%[46.1 µM],1%,3%[46.1 µM],x,x,-13%,x
CSc1nc(Oc2ccc(=O)n(C)n2)nc(N(C)C)n1,10%,20%,7%,4%,8%,-3%,7%,-0.1%
O=C(CCc1nc2ccccc2s1)OCc1ccccc1F,u,1%,9%,-5%,-11%,-10%,4%,-4.2%
CCN(CC)S(=O)(=O)c1ccc(NN=c2c(=O)c3ccccc3c2=O)cc1,-2%,x,1%,x,4%,x,u,x
CS(=O)(=O)N(CC(=O)N1CCN(c2ccccc2)CC1)c1cc(C(F)(F)F)ccc1Cl,-2%,-14%,-14%,-1%&1%,4%,u,1%,-5.6%
Cc1c(C(=O)N2CCC(n3nccc3NC(=O)C3CC3)CC2)[nH]c2ccc(Cl)cc12,5%,-29%[46.1 µM],4%,-10%[46.1 µM],-1%,x,-20%,x
COc1ccccc1N1CCN(C(=O)c2cc(-c3ccccc3O)on2)CC1,-6%,10%&-33%[46.1 µM],-5%,-2%&27%[46.1 µM],-5%,-8%,18%&9%,-1.8%
CCN(CC(=O)Nc1ccc(OC)cc1)C(=O)CN1C(=O)NC(C)(c2ccc3ccccc3c2)C1=O (stereo not drawn),6%,x,u,x,-6%,x,-5%,x
O=C(Nc1ncccn1)C1c2ccccc2Oc2ccccc21,-8%,10%,-29%,22%,0%,-14%,0%,-4.1%
Cc1c(C(=O)NCCN2CCCC(O)C2)oc2c(F)cccc12 (stereo not drawn),7%,x,-4%,x,7%,x,-19%,x
O=C(COC(=O)CNC(=O)c1ccccc1F)NCC(F)(F)F,7%,12%,0%,-19%,x,x,4%,x
CCN(CC)S(=O)(=O)c1ccc(NC(=O)c2ccc(CN3CCOCC3)cc2)cc1,-7%,u,22%,u,19%,-4%,x,-1.6%
CCCSc1nc(N)nc2c1ncn2C1OC(CO)C(O)C1O (stereo not drawn),5%,u,x,8%[46.1 µM],x,x,-2%,x
Cc1ccc(C)n1-c1cc(S(=O)(=O)N2CCOCC2)ccc1N1CCCC1,-7%,u,9%,-26%,-38%,-12%,x,-1.7%
CCOC(=O)NNC(=O)c1ccc(Cl)cc1,-10%,22%,1%,1%[46.1 µM],-6%,-2%,14%,4.6%
COc1cc(CN(C)c2ccc(S(=O)(=O)N3CCCC3)cn2)ccc1OC(F)F,3%,u,5%,u,x,x,u,x
c1ccc2sc(NC3=NCCN3)nc2c1,-2%,u,-82%,u,-54%,u,33%[activator],-17%
COc1ccc(C(C)C)cc1S(=O)(=O)Nc1ccccn1,0%,-8%,-4%,8%,9%,-4%,x,-1.9%
CCOc1ccc(N(C(C)C(=O)N/N=C(\C)c2cccc(NC(=O)c3ccccc3)c2)S(C)(=O)=O)cc1 (stereo not drawn),-4%,u,-1%,u,-11%,14%,0%,-1.9%
O=C1COc2ccc(C(=O)COC(=O)Cc3ccc(F)cc3)cc2N1,6%,3%,-4%,8%[46.1 µM],x,x,-1%,x
O=C(Cn1cc2c(n1)CCCC2)N1CCCC1,11%,x,3%,x,1%,2%,-5%,-6.5%
COCC(C)NC(=S)NCCc1ccc(Cl)cc1Cl (stereo not drawn),-3%,-3%,9%,u,x,x,13%,x
Cc1ccc(OCC(=O)Nc2ccc3c(c2)OCO3)cc1C,14%,x,-3%,x,-35%,x,40%[activator],x
COc1ccc(NC(=O)Cn2nnc3sc4c(c3c2=O)CCCC4)cc1,x,0%[46.1 µM],x,5%[46.1 µM],x,0%,-8%,-6.8%
O=C(N/N=C/c1ccccn1)c1ccc(NC(=O)c2ccccc2Cl)cc1,-6%,-9%[46.1 µM],0%,-1%[46.1 µM],-1%,x,-8%,x
Cc1cc(=O)oc(C)c1C(=O)N1CCc2c([nH]c3ccccc23)C1C(C)C (stereo not drawn),2%,x,-4%,x,-23%,2%,-23%,-2.7%
O=C(Nc1sc2c(c1C(=O)O)CCCC2)c1ccc(F)cc1,u,u,-20%,2.5µM*,-75%,x,17%,x
CC(C)OC(=O)CSc1nnc2c(n1)[nH]c1ccc(F)cc12,-6%,u,-2%,-10%,x,x,u,x
O=C(O)c1cc(N/N=C/c2ccc(N3CCOCC3)cc2)ccc1Cl,-8%,x,0%,x,-3%,x,14µM*,x
O=C(NCc1ccc(F)cc1)c1cnc(N2CCOCC2)c2ccccc12,x,-6%[46.1 µM],x,x,x,7%,u,-1.4%
O=C(O)c1ccc(N=NN2CCCC2)cc1,9%,10%[46.1 µM],2%,u,x,x,10%,x
CCOC(=O)C1CCCN(C(=O)c2ccc3nc(-c4ccc(OC)c(OC)c4)c(-c4ccc(OC)c(OC)c4)nc3c2)C1 (stereo not drawn),-19%,x,2%,x,-9%,x,-10%,x
CC(NC(=O)c1ccc(Cl)s1)C1CCCO1 (stereo not drawn),3%,4%,-3%,-1%,1%,-22%,16%,3.4%
Cc1ccc(Nc2c(-c3ccco3)nc3ccccn23)cc1,-12%,5%,-21%,u,u,-9%,-1%,-2.8%
Cc1cc(SCC(=O)Nc2cccc(S(=O)(=O)NC3=NCCCCC3)c2)nc2ccccc12,6%,x,-1%,x,24%,x,-9%,x
O=C(NC(=S)N1CCCC1)c1ccc(Cl)cc1,-1%,20%[46.1 µM],-4%,1%[46.1 µM],8%,x,30%[activator],x
COC(=O)c1cccnc1NC(=S)NNC(=O)c1ccncc1,1%[3.69 µM],1%,1%,-14%,-2%,-3%,-8%,-1.6%
CCN(CCO)C(=O)c1ccc2nc(Cc3cccc(Cl)c3)oc2c1,1%,u,12%,-11%[46.1 µM],-8%,x,22%,x
CC(C)CC(C(=O)OCC(=O)N1CCN(c2ccccc2)CC1)N1C(=O)c2ccccc2C1=O (stereo not drawn),-25%,-2%,x,10%,x,x,-19%,x
S=C(Nc1ccccc1Cl)N(CCCN1CCOCC1)Cc1ccco1,2%,-8%,-20%,0%,0%,6%,-3%,-0.7%
CC(=O)N/N=C(\C)c1ccc2c(c1)OCCO2,0%,-2%[46.1 µM],0%,-3%[46.1 µM],x,x,6%,x
Cc1cc(C)n(Cc2ccc(C(=O)NCCC3=CCCCC3)o2)n1,3%,-1%,2%,-23%&-23%,-71%,0%,-8%,-9.3%
O=C(COc1ccccc1)N1CCN(CCN2C(=O)c3cccc4cccc(c34)C2=O)CC1,-13%,u,2%,25%[46.1 µM],x,x,u,x

# One compound at a time, from the list above. Order of screens: RE007 growth inh	Lassa entry inh	SARS PLpro yeast	MARV entry inh	NS1 inh	Cruzain noTriton	StopGo reporter	Cruzain Triton
# Profile of `O=C(NCc1ccc(F)cc1)c1cnc(N2CCOCC2)c2ccccc12` = x	-6%[46.1 µM]	x	x	x	7%	u	-1.4%
# Profile of `COC(=O)c1cccnc1NC(=S)NNC(=O)c1ccncc1` = 1%[3.69 µM]	1%	1%	-14%	-2%	-3%	-8%	-1.6%

# (further entries)
SMILES,RE007 growth inh,Lassa entry inh,SARS PLpro yeast,MARV entry inh,NS1 inh,Cruzain noTriton,StopGo reporter,Cruzain Triton
COc1ccccc1-c1nc(-c2ccc(Br)cc2)no1,4%,30%,3%,2%,-4%,0%,x,2.2%
O=C(NCc1ccc(F)cc1)C1CCC(CNS(=O)(=O)c2cccs2)CC1 (stereo not drawn),0%,2%,2%,5%[46.1 µM],8%,x,-14%,x
Cc1ccc(-n2c(C)cc(/C=C3/C(=O)NC(=O)N(Cc4ccco4)C3=O)c2C)cc1,4%,7%,-2%,4%,27%,-10%,-22%,-5.1%
CC1CCC2(CC1)NC(=O)N(CC(=O)NC1(C#N)CCCCC1)C2=O (stereo not drawn),2%,3%,-5%,11%[46.1 µM],x,x,-11%,x
CCN(C(=O)Cc1ccccc1OC)c1nnc(-c2ccncc2)s1,4%,24%,-3%,-20%,-16%,3%,-15%,2.0%
CC(C)Oc1ccc(/C=N/NC(=O)c2nnn(-c3nonc3N)c2CN(C)c2ccccc2)cc1,-7%,x,3%,x,u,x,u,x
N#Cc1ccc(C(=O)Nc2cccc3ccccc23)c(F)c1,17%,14%[46.1 µM],-1%,16%[46.1 µM],-5%,x,9%,x
CCC(C)N1C(=O)N(c2cccc(Cl)c2)C(C)(O)CC1(C)C (stereo not drawn),-7%,x,-2%,x,-3%,x,-14%,x
CCOC1(C)OCC(=O)[C@]2(CCC3C4CCC5=CC(=O)C=CC5(C)C4C(=O)CC32C)O1 (stereo partly drawn),7%,1%,27%,-28%,-16%,3%,-27%,0.0%
COCC(C)NC(=O)c1ccc2nc(-c3ccccc3)c(-c3ccccc3)nc2c1 (stereo not drawn),-9%,u,x,u,-10%,x,u,x
O=C(NC(NC(=O)c1c(F)cccc1F)c1ccc([N+](=O)[O-])cc1)c1c(F)cccc1F,9%,x,1%,x,4%,x,4%,x
Cc1c(Cl)cccc1NC(=S)/C(=C(\[O-])c1ccc(Cl)s1)[n+]1ccccc1,-8%,17%,6%,-4%,15%,u,0%,-14%
Cc1nc(SCC(=O)Nc2ccc3c(c2)OCO3)c(C#N)c2c1CCCC2,-2%,10%,4%,-5%,1%,-9%,u,-0.5%
O=c1cc(C(F)(F)F)c2cc3c4c(c2o1)CCCN4CCC3,10%,-14%,7%,-16%,1%,6%,-20%,-2.4%
Cn1c(SCC(=O)Nc2nccs2)nnc1-c1ccc(S(=O)(=O)N2CCCC2)cc1,-8%,0%,1%,11%,-5%,8%,-19%,4.7%
